Mtb H37Rv: Mycobacterium tuberculosis H37Rv growth inhibition, cell based, confirmatory dose response (AID 1949). actives 1.6% (n = 100,000). inhibition, % at 10 µg/mL; hits with a dose series show IC50 in µg/mL. most inactive calls were filed without a number and no value below 0 was filed;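 active = confirmed in a dose series; inconclusive = about 50% or more but not retested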;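 note: bacteria grown 7 days with compound before Alamar blue readout; 0% = untreated bacteria and 100% = reference antibiotic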
An asterisk follows results filed as active; i = inactive; ? = inconclusive.

molecule	Mtb H37Rv
CC1(C)CC(=O)C(C(=O)c2ccccc2)C(=O)C1	i
Cc1cccc(NC(=O)CCSc2ccc(Cl)cc2)c1C	i
Cc1cc(Br)c2[nH]c(O)c(N=NC(=O)COc3ccc(C(C)(C)C)cc3C)c2c1	27µg/mL*
CC(C)Cc1nnc(NC(=O)Cc2cccs2)s1	i
COC(=O)CSc1nnc(C)n1-c1ccc(C)cc1	i
Cc1cc(S(=O)(=O)N(C)C)ccc1F	1%
Cc1ccc(C(=O)c2ccc(N3CCCC3)c([N+](=O)[O-])c2)c(C)c1	45%
CC(Oc1cccc(Cl)c1)C(=O)N1CCc2ccccc21 (centres undefined)	i
O=S(=O)(/N=C(/Nc1ccccc1OC(F)F)c1ccccc1)c1ccccc1	6%
CSc1ccc(/C=C(\C#N)c2nc3ccccc3n2C)cc1	i
COC(=O)Oc1ccc2c3c(c(=O)oc2c1)CCCC3	i
COc1ccc(CONS(=O)(=O)c2ccc(NC(C)=O)cc2)cc1Cl	3%
COc1ccc(OC)c(NC(=S)N2CCN(c3ccccc3)CC2)c1	3%
CCCOc1ccc(-c2csc(NC(=O)COc3cccc(Cl)c3)n2)cc1	i
O=C(O)CC(NCc1ccco1)C(=O)Nc1ccc(Cl)cc1 (centres undefined)	i
COC(=O)c1ccc(NC(=S)NCC2CCCO2)cc1 (centres undefined)	i
CCOC(=O)c1sc2ncn(CCOc3ccccc3)c(=O)c2c1C	4%
COc1ccc(C(=O)Nc2ncc(Cc3ccc(Cl)cc3)s2)cc1	i
Cc1csc(NC(=O)CS(=O)(=O)Cc2ccccc2)n1	i
CCC(=O)Oc1ccc(C2CC(=O)Nc3ccc4ccccc4c32)cc1OC (centres undefined)	4%
COC(=O)Nc1sc2c(c1C(=O)N1CCOCC1)CCC(C)C2 (centres undefined)	i
O=C(NC(=S)Nc1ccc2c(c1)Cc1ccccc1-2)c1cccs1	i
CN1CCN(c2ccc([N+](=O)[O-])cc2C(=O)Oc2ccccc2)CC1	3%
O=C(O)c1ccc(CN2C(=O)c3ccccc3S2(=O)=O)cc1	i
CCC(CC)c1nnc(NC(=O)c2cccs2)s1	i
COc1ccc(NC(=O)C(CC(=O)O)Cc2ccc(Cl)cc2)cc1 (centres undefined)	i
COC(=O)c1ccccc1NC(=O)c1c(NC(=O)CN2CCCCC2)sc2c1CCC2	38%
COc1ccc(S(=O)(=O)Nc2ccc3c(c2)C(=O)NC3=O)cc1	i
CCCOc1ccccc1C(=O)NNC(N)=S	i
O=C(COc1ccccc1)Nc1ccc(C(=O)N2CCCC2)cc1	i
O=C(Nc1ccc(Br)cc1F)c1ccc(CSc2ccccc2)cc1	1%
O=C(NC1=NCCS1)c1ccc(Br)s1	i
O=C(c1nc2ccccc2s1)N1CCSCC1	i
O=C(CSc1nnc2ccc3ccccc3n12)Nc1nsc(-c2ccc(Cl)cc2)n1	i
COc1cc(C(=O)Nc2cc3nn(-c4ccccc4)nc3cc2Cl)cc(OC)c1OC	i
CCOc1ccc(C(=O)Nc2sc(C)c(CC)c2C#N)cc1	i
Cc1ccc(NC(=O)C2CCCO2)c([N+](=O)[O-])c1 (centres undefined)	i
N#Cc1ccc(-c2cccs2)nc1SCC(=O)Nc1ccccc1I	i
CCCCOc1ccc(C(=O)Nc2sc3c(c2C(N)=O)CCCC3)cc1	3%
CCOc1ccc(Cc2n[nH]c(=S)n2-c2ccccc2)cc1	i
O=C(Nc1ccccc1C(=O)NCCc1ccccc1)c1ccc(Cl)cc1	i
c1ccc2c(c1)OCC(CSc1nc3ccccc3[nH]1)O2 (centres undefined)	6%
O=C1NC(=O)N(c2ccc(Cl)cc2)C(=O)/C1=C/c1ccccc1Br	2%
COc1ccc(C)cc1NC(=O)NN1CCOCC1	i
CC1=C(C(=O)Nc2ccc(F)cc2)C(c2ccccc2OCc2ccccc2)C2=C(CCCC2=O)N1 (centres undefined)	25%
O=C1CC(c2ccccc2)c2cc3c(cc2N1)OCCO3 (centres undefined)	i
Cc1ccc(Nc2nc(N)nc(COc3cccc4cccnc34)n2)cc1	i
CCCCC(=O)Nc1ccc(C(=O)N2CCc3ccccc32)cc1	i
NC(=O)C1CCN(C(=O)CN(CCc2ccccc2)S(=O)(=O)c2cc(Cl)ccc2Cl)CC1	i
CCc1c(C)c2ccc(OCC(=O)Nc3ccc(Cl)cc3)cc2oc1=O	45%
CCCCn1nnc(NC(=S)NC(=O)CC23CC4CC(CC(C4)C2)C3)n1	i
CC(=O)Nc1nc(-c2ccccc2)c(-c2ccccc2)o1	44%
COC(=O)CN(c1ccccc1)S(=O)(=O)c1cc(Br)ccc1OC	i
COc1ccc(C(=O)Nc2cccc(NC(=O)C(C)C)c2)cc1OC	i
COc1ccc(S(=O)(=O)Nc2ccccc2C(=O)N2CCCC2)cc1OC	i
O=C(COc1ccc2ccccc2c1Br)NCc1ccc(F)cc1	1%

Five entries already listed, arranged by length of the SMILES, highest first:
molecule	Mtb H37Rv
NC(=O)C1CCN(C(=O)CN(CCc2ccccc2)S(=O)(=O)c2cc(Cl)ccc2Cl)CC1	i
CCCCn1nnc(NC(=S)NC(=O)CC23CC4CC(CC(C4)C2)C3)n1	i
COc1ccc(S(=O)(=O)Nc2ccccc2C(=O)N2CCCC2)cc1OC	i
CCc1c(C)c2ccc(OCC(=O)Nc3ccc(Cl)cc3)cc2oc1=O	45%
CC(=O)Nc1nc(-c2ccccc2)c(-c2ccccc2)o1	44%

(list continues)
molecule	Mtb H37Rv
COc1cc(NS(=O)(=O)c2ccc(Cl)cc2)c(OC)cc1Br	i
CC(=O)c1cccc(NC(=O)N2CCN(C3CCCCC3)CC2)c1	i
CCC(C(=O)Nc1cccc(O)c1)c1ccccc1 (centres undefined)	i
N#Cc1ccccc1CSc1nnc(-c2ccco2)n1-c1ccccc1	i
Cc1c(C#N)c2ccccc2n1CC(=O)NCc1ccc2c(c1)OCO2	i
O=c1oc2cc(OCc3c(F)cccc3F)ccc2c2c1CCC2	i
N#CCNC1CC(=O)N(c2ccc(F)cc2)C1=O (centres undefined)	i
CCCCOc1ccccc1OC(=O)c1ccccc1	18%
CC12CCC(C(=O)NCc3ccccc3Cl)(CC1=O)C2(C)C (centres undefined)	i
Cc1cc(C)cc(C(=O)NC(=S)Nc2cc(-c3nc4ccccc4[nH]3)ccc2Cl)c1	20%
CCCCOc1cccc(NC(=O)CSc2nc(C)cc(C)c2C#N)c1	i
Cc1ccccc1-n1c(-c2cccc([N+](=O)[O-])c2)nc(=S)c2c1CCCC2	3%
Cc1cc(C(=O)Nc2ccccc2)c(-c2ccccc2)o1	4%
O=C(Cc1cccc2ccccc12)Nc1ccc(Cl)cc1Cl	i
CC1C2C=CC(C2=C2CCCC2)C1C(=O)N(C=O)c1cccc([N+](=O)[O-])c1 (centres undefined)	i
CCN(CC(=O)O)S(=O)(=O)c1ccc(C)cc1	i

A second format for 4 compounds above.
structure: CC12CCC(C(=O)NCc3ccccc3Cl)(CC1=O)C2(C)C (centres undefined)
  Mtb H37Rv: i

structure: Cc1cc(C(=O)Nc2ccccc2)c(-c2ccccc2)o1
  Mtb H37Rv: 4%

structure: O=C(Cc1cccc2ccccc12)Nc1ccc(Cl)cc1Cl
  Mtb H37Rv: i

structure: CC1C2C=CC(C2=C2CCCC2)C1C(=O)N(C=O)c1cccc([N+](=O)[O-])c1 (centres undefined)
  Mtb H37Rv: i

(continued)
molecule	Mtb H37Rv
Cc1cc(C)cc(Oc2ccc(N)cc2)c1	i
O=C(NC(=S)Nc1ccccc1N1CCCCC1)c1cc2ccccc2o1	i
CCOC(=O)Cc1[nH]nc2c1C(c1ccoc1)C(C#N)=C(N)O2 (centres undefined)	i
CC(=O)c1ccc(OCC(O)Cn2cnc3ccccc32)cc1 (centres undefined)	i
COc1cc(OC)c(-c2nc(-c3ccncc3)no2)cc1OC	i
COc1ccc(NC(=O)c2cccs2)cc1NC(=O)c1ccco1	i
Cc1cc(Br)c(OCC(=O)N=Nc2c(O)[nH]c3c(C)cccc23)c(Br)c1	i
O=C(O)COc1ccc(C(=O)Nc2ccc(F)cc2)cc1	i
COc1ccc(C(=O)Oc2ccccc2C(C)=O)cc1Br	3%
OC(COc1ccc2ccccc2c1)CN1CCN(c2ccccn2)CC1 (centres undefined)	1%
CCOC(=O)CC1NC2CCCCC2NC1=O (centres undefined)	1%
COc1ccc(C(=O)Nc2ccc(F)cc2F)cc1Br	i
N#Cc1nc(-c2ccccc2Cl)oc1N1CCN(Cc2ccccc2)CC1	i
Cc1ccc(-n2nc3ccc(NC(=S)NC(=O)c4ccc(C)cc4C)cc3n2)cc1	i
Cc1cc(C(=O)NC2=NCCS2)cs1	i
O=C(CCN1C(=O)c2ccccc2C1=O)Nc1ccc(Nc2ccccc2)cc1	1%
O=C(O)c1cc(O)ccc1NC(=O)C1CCCCC1	i
O=C(O)C1CCCCC1C(=O)NCCc1ccncc1 (centres undefined)	i
COc1cccc(/C=C2/C(=O)NN(c3ccc(C)c(C)c3)C2=O)c1	i
Cc1cc(C)c(-n2nnnc2SC(C)C)c(C)c1	i
COc1ccc(N(CC(=O)N2CCN(c3cc(Cl)ccc3C)CC2)S(=O)(=O)c2ccccc2)cc1OC	i
COc1ccc(C(=O)NC(=S)Nc2ccc(Cl)cc2C(F)(F)F)cc1Br	i
C#CCn1c(CC(C)C)nc2ccccc21	i
CC(=O)Nc1ccccc1NC(=O)COc1ccc2ccccc2c1Br	i
Cc1nc(SC2CC(=O)N(c3cc(Cl)cc(Cl)c3)C2=O)nc2c1CCCC2 (centres undefined)	i
CN(C)c1ccc(-c2oc3c(ccc4ccccc43)c(=O)c2O)cc1	24%
Nc1cc(=O)[nH]c(SCc2ccc(F)c3ccccc23)n1	i
Cc1ccc(N2C(=O)CC(SCC(=O)Nc3ccccc3)C2=O)cc1 (centres undefined)	i
CC(C)c1ccc(CNC(=O)C(=O)NCCc2ccccc2)cc1	i
C=CCNC(=O)c1ccccc1NC(=O)CN(c1ccc(OC)c(OC)c1)S(=O)(=O)c1ccc(C)cc1	i
O=c1c2c3c(sc2nc2c4ccccc4c(NCC4CCCO4)nn12)CCCC3 (centres undefined)	?
CC(NC(=O)c1ccccc1)c1ccc(Br)cc1 (centres undefined)	i
CC(=O)N1CCN(Cc2nc3cc(NS(C)(=O)=O)ccc3n2C)CC1	i
CCn1c(SCCOc2ccccc2)nc2ccccc21	2%
COc1cc(C#N)cc(Br)c1OC	i
O=S(=O)(Nc1ccccn1)c1ccc(Cl)c2ccccc12	i
COc1ccc2c(c1)Cc1sc(NC(=O)c3ccc(F)cc3)nc1-2	i
CNc1oc(-c2ccco2)nc1S(=O)(=O)c1ccccc1	i
O=S(=O)(Nc1ccccc1Sc1ccccc1)c1ccc(F)cc1	i
Cc1cc(=O)[nH]c(SCCOc2ccc(OC(C)C)cc2)n1	i
O=c1c2ccccc2ncn1Cc1cccc([N+](=O)[O-])c1	i
CCc1c(C)sc(NC(=O)c2ccc(C)o2)c1C(N)=O	i
C=CCn1c(SCC(=O)NCCc2ccccc2)nnc1-c1ccc(Br)cc1	i
COc1cccc(N(CC(=O)Nc2ccccc2Br)S(C)(=O)=O)c1	1%
O=[N+]([O-])c1cccc(NS(=O)(=O)c2ccc(F)c(Cl)c2)c1	i
CC(C)NS(=O)(=O)c1ccc(CCC(=O)O)cc1	i
COc1ccccc1OCCOC(=O)Nc1ccc(Cl)c(Cl)c1	i
Fc1ccc(NC(=S)NCc2ccccc2)cc1	i
CC1=C(C(=O)N2CCOCC2)C(c2ccc(N(C)C)cc2)C2=C(CC(C)(C)CC2=O)N1 (centres undefined)	i
Cc1ccc(Cn2c3ccccc3c3nc4ccccc4nc32)cc1	i
O=C(O)c1cc(Cl)c2ccccc2c1O	i
NS(=O)(=O)c1ccc(NC(=S)NC2CCN(Cc3ccccc3)CC2)cc1	i
O=C(NC1CCCCC1)c1ccc(F)cc1F	i
Cc1ccc2nsnc2c1S(=O)(=O)NC12CC3CC(CC(C3)C1)C2	i
O=C(C(Cc1ccccc1)N1C(=O)c2cc(Cl)c(Cl)cc2C1=O)N1CCCCC1 (centres undefined)	i
O=C(Nc1nnc(COc2ccc(Cl)cc2)s1)c1cccs1	i

Additional results follow:
molecule	Mtb H37Rv
O=[N+]([O-])c1ccc(N2CCN(c3ccccc3)CC2)cc1N1CCOCC1	i
O=C(CN(Cc1ccc(Br)cc1)S(=O)(=O)c1ccc(Cl)cc1)N1CCOCC1	1%
Nc1ncnc(Sc2ncccn2)c1[N+](=O)[O-]	i
CC(C)OC(=O)c1ccc(COC(=O)c2cnccn2)cc1	13%
Cc1cc(Cl)ccc1NC(=O)CN1CCN(C(=O)c2ccco2)CC1	i
COC(=O)c1ccc(NS(=O)(=O)c2ccc(Br)s2)cc1	i
O=C(Nc1ccc(C(=O)N2CCCCC2)cc1)c1cccc(I)c1	1%
CC(=O)NC(=S)Nc1ccc(Oc2ccccc2)cc1	44%
CCOc1cc(/C=C2/C(=O)N(c3ccccc3)N=C2C)ccc1OC(=O)c1ccco1	i
COCCCNC(=S)NNC(=O)Cc1c(F)cccc1Cl	i
CC1CC(C)CN(CC(O)COCc2ccccc2)C1 (centres undefined)	i

Source: PubChem

A portion of the library. The share of hits here may be higher or lower than overall.
